TRPV1 PAM: enhances activation of the human vanilloid receptor TRPV1; Q8NER1; TRPV1-expressing cells, Fluo-8 calcium influx, capsaicin EC20 potentiation; host cell line not named in the record; control for the full effect not named in the record; potentiation, % at 8.33 µM; actives 0.02% (n = 320,000); AID 540277; active means potentiation above 80%; inconclusive means 30% to 80%; inactive means below 30%; also: 0% is about no effect
Target sequence (Q8NER1 whole entry, looked up): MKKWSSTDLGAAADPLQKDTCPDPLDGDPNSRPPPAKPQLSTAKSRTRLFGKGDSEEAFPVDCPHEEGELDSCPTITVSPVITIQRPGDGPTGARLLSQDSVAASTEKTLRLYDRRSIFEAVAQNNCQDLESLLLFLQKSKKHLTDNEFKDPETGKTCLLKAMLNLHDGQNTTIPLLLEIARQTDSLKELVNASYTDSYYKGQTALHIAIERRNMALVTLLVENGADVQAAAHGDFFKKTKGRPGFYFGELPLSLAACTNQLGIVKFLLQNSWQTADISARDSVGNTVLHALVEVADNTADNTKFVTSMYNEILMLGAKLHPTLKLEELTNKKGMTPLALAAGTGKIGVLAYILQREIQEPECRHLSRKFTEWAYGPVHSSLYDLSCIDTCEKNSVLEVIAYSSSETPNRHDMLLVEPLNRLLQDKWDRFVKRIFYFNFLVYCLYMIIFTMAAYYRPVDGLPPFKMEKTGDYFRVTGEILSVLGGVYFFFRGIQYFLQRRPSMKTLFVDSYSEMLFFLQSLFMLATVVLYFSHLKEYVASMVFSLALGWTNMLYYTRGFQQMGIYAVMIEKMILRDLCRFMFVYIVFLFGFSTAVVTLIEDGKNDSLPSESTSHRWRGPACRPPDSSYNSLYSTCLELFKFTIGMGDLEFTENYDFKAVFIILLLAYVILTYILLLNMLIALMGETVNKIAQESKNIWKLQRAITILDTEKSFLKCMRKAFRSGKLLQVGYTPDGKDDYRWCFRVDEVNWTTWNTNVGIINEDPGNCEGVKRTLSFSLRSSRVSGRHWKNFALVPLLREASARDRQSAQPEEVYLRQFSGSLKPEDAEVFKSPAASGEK
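TRPV1-expressing cells were cultured overnight at 35.5C and loaded with Fluo-8 calcium dye for 40 to 90 min at room temperature. After a 10 s baseline, compound was added and calcium influx was read kinetically for 3 min (ex 480/em 520 nm).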
gsp ag: agonists of gsp mutant (McCune-Albright syndrome); Potency, µM (doses to about 76.9 µM), for inactives: top-dose activation (cAMP increase), actives largely listed as activators; gsp mutant cells, cAMP HTRF, 30 min; control for the full effect not named in the record; actives 0.13% (n = 340,000); AID 624287; active = well fitted activation curve with a large enough effect; inconclusive = small, poorly fitted or top-dose-only effect, or another doubt; inactive = no such curve, though single readings can be large or run the other way; cell line not stated here;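 also: phosphodiesterase inhibitor Ro 20-1724 added with compounds to block cAMP breakdown; potency is read from the fitted curve at half-maximal effect; nearly all actives have a fitted effect of over 60% in size; about a fifth of the inactives were tested at one dose only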
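Cells in DMEM/10% FBS with G418 were pretreated with compounds in DMSO plus […] (300 uM stock) for 30 min at 37C. cAMP was measured by HTRF (cAMP-d2 plus anti-cAMP antibody-K) after 30 min at room temperature.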
ClpP mod: qHTS Assay for Activators of ClpP; actives 1.9% (n = 340,000); ATP-dependent Clp protease proteolytic subunit (Bacillus subtilis (strain 168)), P80244; Potency, µM (highest dose often 57.5 µM), for inactives: at the top dose activity change, negative = active; AID 651965, 2013; purified B. subtilis ClpP, FRET peptide cleavage, 20 min; active = well fitted falling curve with a large enough effect; inconclusive = small, poorly fitted or top-dose-only effect; inactive = no such curve, though single readings can be large or run the other way; also: potency is read from the fitted curve at half-maximal effect; the source files actives as falling curves though it sought activators and does not explain the sign; nearly all actives have a fitted effect of over 65% in size; many hits overshoot -100%
Target sequence (P80244 whole entry, looked up): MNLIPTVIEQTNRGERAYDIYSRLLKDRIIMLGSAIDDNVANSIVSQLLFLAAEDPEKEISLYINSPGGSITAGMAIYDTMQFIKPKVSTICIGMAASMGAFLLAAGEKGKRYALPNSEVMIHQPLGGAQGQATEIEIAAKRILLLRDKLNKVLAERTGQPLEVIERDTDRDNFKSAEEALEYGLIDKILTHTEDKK
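Buffer: 100 mM Tris/HCl pH8, 100 mM KCl, 0.05% low protease BSA, 2.5% glycerol, 0.01% Tween-20. ClpP 10 microg/mL final; 20 min RT; delta FRET normalized to ADEP and DMSO controls.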
Menin-MLL FL inh: inhibitors of human menin-MLL interaction, wild-type MLL peptide | Fluorescence polarization, fluorescein-MLL peptide displacement from menin | FP activity change, % at 61.4 µM | 290,000 tested, under 10 active | AID 1766; inconclusive = falling polarisation curve, or a change in total fluorescence; inactive = total fluorescence flat and polarisation flat or rising; no compound was filed as active; the % refers to the polarisation; negative = inhibition;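 also: % of control where 0% means no effect; inhibitors lower the polarisation; unlabelled MLL peptide was the positive control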
Sfp PPTase inh: inhibitors of Bacillus subtilis Sfp phosphopantetheinyl transferase; actives 3.5% (n = 310,000); Q9F4F7; Biochemical Sfp PPTase activity, qHTS; Potency, µM, for the others: max response, negative = inhibition, hits mostly inhibitors; active = well fitted inhibition curve with a large enough effect; inconclusive = small, poorly fitted or top-dose-only effect, or another doubt; inactive = no such curve, though single readings can be large or run the other way;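 also: the enzyme is Sfp with the accession as filed and its product quenches rhodamine fluorescence; potency is read from the fitted curve at half-maximal effect; 0% = enzyme reaction without inhibitor and -100% = no enzyme wells; top concentration of the series not given in the record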
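Compounds were incubated with enzyme (final 15 nM) for 15 min at room temperature before substrate addition started the reaction. Fluorescence at 525 nm excitation, 598 nm emission was recorded immediately and after 30 minutes.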
CtBP-E1A inh: inhibitors of CtBP/E1A interaction; AlphaScreen GST-E1A/His-CtBP binding, 1536-well; stronger effect = lower value; control for the full effect not named in the record; activity change, % (test concentration not listed); actives 0.49% (n = 340,000); AID 651724; in the data active means activity change below about -65%; inconclusive means about -30% to -65%; inactive means above about -30%; also: % is scaled to controls: 0 for no effect and ±100 for the full control effect; compound concentration not given in the record
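GST-E1A and His-tagged CtBP (125 nM each as 5X stock) were preincubated with pin-transferred compound for 2 h at 37 °C in the dark, then glutathione donor and nickel acceptor beads were added for 1 h before AlphaScreen reading.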
gsp antagonist: antagonists of gsp mutant (McCune-Albright syndrome); gsp-mutant cells, cAMP HTRF, 30 min; control for the full effect not named in the record; Potency, µM (titrated, usually from 76.9 µM), for the others: at the highest dose activity change, negative = inhibition, usual class: inhibitors; actives 0.4% (n = 340,000); AID 624288; active = falling curve of any shape with a large fitted effect; inconclusive = falling curve, mostly with a smaller effect; inactive = flat or rising curve; cell line not stated here;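 also: intracellular cAMP measured with PDE inhibitor Ro 20-1724 present during compound exposure; potency is read from the fitted curve at half-maximal effect; % is scaled to controls: 0 for no effect and ±100 for the full control effect; nearly all actives have a fitted effect of over 65% in size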
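HTRF cAMP read-out (cAMP-d2 plus anti-cAMP antibody-K in lysis buffer, 30 min RT). Before lysis, cells are exposed to compounds with […] for 30 min at 37C in DPBS containing Ca/Mg, BSA and Tween 20.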
Numbers without * were called inactive; ? = inconclusive; nt = no result given; [ ] = dose if it differs, or a comment.

Under each structure: TRPV1 PAM	gsp ag	ClpP mod	Menin-MLL FL inh	Sfp PPTase inh	CtBP-E1A inh	gsp antagonist
- CCOC(=O)CC1C(=O)NCCN1C(=O)c1ccc(C)cc1 (stereo not given)
→ 6	3%	-2.5%	2.5	14%	nt	4%
- CCCOC(=O)c1ccc(NC(=O)c2ccc(Br)o2)cc1
→ -15	0%	-4.3%	1.4	-6%	0	-23%
- Nc1c(C(=O)NCc2cccnc2)sc(=S)n1-c1ccccc1
→ -1	9%	-3.3%	2.2	13µM*	-3	-3%
- NC(=O)C1CCN(c2ccc3c(c2)S(=O)(=O)c2ccccc2C3=O)CC1
→ nt	nt	-2.8%	nt	nt	-12	-5%
- Cc1ccc(Cc2c(C)c(C#N)c3[nH]c4ccccc4n3c2=O)cc1
→ -3	-2%	3.6%	-0.7	1%	7	-26%
- O=C(O)c1c(Cl)nc2ccccn12
→ 1	-4%	-4.7%	1.3	14%	nt	-4%
- CC(C)c1nc2sc3c(SCC(=O)NCc4ccco4)ncnc3c2c2c1CCC2
→ 22	?	25µM*	?	25µM*	-25	8%
- O=C(/C=C/c1ccccc1)Nc1nc(-c2ccncc2)cs1
→ -11	12%[15.4 µM]	nt	1.2	-33%	0	-17%
- CNc1nc2c(c(=O)[nH]c(=O)n2C)n1CCOC
→ 10	nt	nt	2.9	18%	nt	nt
- CSc1ccc(S(=O)(=O)N2CC(=O)Nc3ccccc32)cc1
→ 12	23%	-2.2%	1.1	4%	-11	-5%
- CCOC(=O)Cn1cc(C(=O)C2CC2)c2ccccc21
→ 8	-6%	-4.0%	0.5	9%	7	-5%
- CCOC(=O)C(/C=N/c1cc(C)nn1-c1ccccc1)=C(\C)O
→ -1	?	-1.0%	-2.3	14%	1	11%
- CCOCCCNC(=O)CN(Cc1ccc(Cl)cc1)S(C)(=O)=O
→ 2	5%	-2.6%	5.1	22%	0	6%
- Cc1cc2c(cc(C(=O)NCc3cccnc3)n2Cc2ccc(Cl)cc2)o1
→ 26	-2%	-5.6%	4.8	45µM*	-11	-12%
- Cc1ccc(C)c(N=Cc2cc3c(cc2[N+](=O)[O-])OCO3)c1
→ 9	6%[15.4 µM]	nt	-0.1	?	-13	nt
- O=C(CCNC(=O)c1ccccc1Cl)Nc1ccncc1
→ 3	5%	-3.7%	nt	7%	3	6%
- Cc1nc2cc(NC(=O)NCc3ccc4c(c3)OCO4)ccc2o1
→ 10	-43%[inhibitor]	-1.0%	0.7	2%	3	0%
- COC(=O)c1ccc(CSc2nc3ccccc3c(=O)n2C)o1
→ 0	-5%[15.4 µM]	nt	-3.1	-8%	-1	1%
- CCC1Oc2ccccc2N(CC(=O)NCCCN2CCN(c3ccc(OC)cc3)CC2)C1=O (stereo not given)
→ ?	?	-2.1%	-2.1	10%	-14	6%
- CCOC(=O)c1ccc(NC(=O)NS(=O)(=O)c2ccc(C)cc2)cc1
→ 5	26%	-8.3%	-3.2	-12%	4	4%

Reprinted at random: 3 compounds from above, in no set order.
Under each structure: TRPV1 PAM	gsp ag	ClpP mod	Menin-MLL FL inh	Sfp PPTase inh	CtBP-E1A inh	gsp antagonist
- CCOC(=O)C(/C=N/c1cc(C)nn1-c1ccccc1)=C(\C)O
→ -1	?	-1.0%	-2.3	14%	1	11%
- O=C(CCNC(=O)c1ccccc1Cl)Nc1ccncc1
→ 3	5%	-3.7%	nt	7%	3	6%
- Cc1ccc(C)c(N=Cc2cc3c(cc2[N+](=O)[O-])OCO3)c1
→ 9	6%[15.4 µM]	nt	-0.1	?	-13	nt

Next part.
Under each structure: TRPV1 PAM	gsp ag	ClpP mod	Menin-MLL FL inh	Sfp PPTase inh	CtBP-E1A inh	gsp antagonist
- COc1ccccc1OCc1cc(C(=O)N(C)CCC2CCOCC2)no1
→ nt	?	-3.0%	nt	nt	-8	nt
- O=C(NCC1COCCO1)C1CCN(S(=O)(=O)c2ccccc2)CC1 (stereo not given)
→ 8	?	1.0%	-2.0	10%	6	3%
- O=C(COC(=O)c1ccc(Cl)c(S(=O)(=O)N2CCCCC2)c1)NCCc1ccccc1
→ 25	8%	-3.7%	nt	nt	0	-11%
- S=C(NCCCN1CCOCC1)N1CCN(c2cccc(Cl)c2)CC1
→ -7	-1%[15.4 µM]	-1.0%	0.8	?	-5	7%
- Nc1ccccc1Nc1cccc(C(F)(F)F)c1
→ 3	0%[15.4 µM]	nt	0.6	7%	-14	1%
- CN(CCC(=O)Nc1cc(S(=O)(=O)N(C)C)ccc1Cl)CC(=O)Nc1ccc(F)cc1
→ -7	6%[15.4 µM]	-0.3%	-3.3	13%	0	-29%
- COc1ccc(C2C(C#N)=C(N)OC3=C2C(=O)CCC3)cc1Cn1cc([N+](=O)[O-])cn1 (stereo not given)
→ 13	-1%[15.4 µM]	nt	7.2	10%	-8	10%
- O=C(Nc1ccc(Cl)cc1C(=O)N1CCCC1)c1cccc([N+](=O)[O-])c1
→ 1	20%	nt	0.6	-14%	-16	-7%
- COc1ccc(C2C3C(C)=NN=C3CC(C)(O)C2C(C)=O)cc1 (stereo not given)
→ -7	-37%[inhibitor]	-1.0%	3.1	8%	8	-16%
- COc1ccc(NC(=O)Cc2nnc(SCC(=O)Nc3ccc(F)cc3)n2C)cc1
→ 19	2%	nt	2.4	23%	3	-5%

By substructure, those above with an aryl thioether with sulfur outside any ring.
Under each structure: TRPV1 PAM	gsp ag	ClpP mod	Menin-MLL FL inh	Sfp PPTase inh	CtBP-E1A inh	gsp antagonist
- CC(C)c1nc2sc3c(SCC(=O)NCc4ccco4)ncnc3c2c2c1CCC2
→ 22	?	25µM*	?	25µM*	-25	8%
- CSc1ccc(S(=O)(=O)N2CC(=O)Nc3ccccc32)cc1
→ 12	23%	-2.2%	1.1	4%	-11	-5%
- COC(=O)c1ccc(CSc2nc3ccccc3c(=O)n2C)o1
→ 0	-5%[15.4 µM]	nt	-3.1	-8%	-1	1%
- COc1ccc(NC(=O)Cc2nnc(SCC(=O)Nc3ccc(F)cc3)n2C)cc1
→ 19	2%	nt	2.4	23%	3	-5%

(listing goes on)
Under each structure: TRPV1 PAM	gsp ag	ClpP mod	Menin-MLL FL inh	Sfp PPTase inh	CtBP-E1A inh	gsp antagonist
- Cc1cc(C)n2nc(SCC(=O)N(Cc3ccccc3)C3CCS(=O)(=O)C3)nc2n1 (stereo not given)
→ -6	?	nt	4.3	11%	5	11%
- CC1CN(c2ccc(C(F)(F)F)cc2[N+](=O)[O-])CCN1S(C)(=O)=O (stereo not given)
→ -8	?	30%	0.5	0%	11	4%
- O=S(=O)(Nc1ccccc1N1CCOCC1)c1ccc(Cl)cc1
→ -4	19%	2.7%	nt	nt	8	3%
- O=C(CCN1C(=O)S/C(=C/c2ccc(Cl)cc2)C1=O)N1CCOCC1
→ -15	-47%[inhibitor]	-0.1%	0.2	17%	0	-2%
- O=C(Nc1ccccc1)OCCOc1ccc(Cl)cc1Cl
→ nt	7%	nt	nt	nt	42	-19%
- O=C1NC[C@H](c2ccccc2)OC(=O)[C@@H](Cc2ccc(F)cc2)C/C=C\C[C@H]1CC(=O)N(CCO)Cc1ccccc1
→ nt	-3%	1.2%	nt	nt	18	?
- CCc1cc[n+](-c2nc3ccccc3nc2[N-]S(=O)(=O)c2ccc(Br)s2)cc1
→ 12	12%[15.4 µM]	nt	?	-29%	10	?
- Cc1ccc(-n2c(C)n[nH]c2=S)cc1C
→ -10	?	-20%	0.7	0%	7	14%
- CCOc1ccc(NC(=O)CN(C)C(=O)C2CCN(c3ncnc4sc(C)c(C)c34)CC2)cc1OCC
→ -2	-15%	-0.1%	1.1	3%	?	-16%
- CC(OC(=O)c1cc2sccc2n1C)C(=O)NC(C)(C)C (stereo not given)
→ ?	-62%	-5.4%	-1.3	-4%	nt	5%
- O=C(Nc1ccc(OC(F)(F)F)cc1)C1CCCN(S(=O)(=O)c2cccnc2)C1 (stereo not given)
→ 0	0%	-0.3%	1.3	-4%	3	-4%
- O=C(c1cnc2n(c1=O)CCS2)N1CCc2ccccc21
→ -15	0%	-1.8%	-0.2	1%	-13	0%
- Oc1cc(Cc2ccccc2)cnc1CN1CCOCC1
→ -12	-24%	-2.3%	2.1	0%	-16	9%
- Cc1cc(-c2cc(C(=O)NCc3ccccc3)on2)nc(S(C)(=O)=O)n1
→ -29	29%	-4.8%	5.1	6%	-24	-10%
- CC(C)[C@H](NC(=O)c1ccccc1)C(=O)OCC(=O)c1ccc(S(=O)(=O)N2CCCCC2)cc1
→ 4	4%	-1.2%	nt	nt	-7	-11%
- Cc1cc2c(o1)CC(C)(C)CC2=O
→ ?	-13%	nt	-0.3	-4%	7	6%
- CCOC(=O)c1c(C)[nH]c(C(=O)OCC(=O)c2ccc(OC)cc2OC)c1C
→ -5	-12%[15.4 µM]	nt	nt	nt	-4	9%
- COc1ccc(Cl)cc1NC(=O)Nc1cc(C)on1
→ -8	-29%	2.0%	nt	-1%	0	-24%
- CCCn1c(SCC(=O)c2ccc(CC)cc2)n[nH]c1=O
→ -25	13%	-0.1%	2.2	-7%	1	2%
- CCCNC(=S)Nc1ccc(F)cc1F
→ nt	18%[15.4 µM]	0.7%	-2.9	-2%	5	8%

Screening results as filed in PubChem BioAssay.
